# Casp6 inh = blocks human caspase-6 cleavage activity; P55212; purified caspase-6, Z-VEID-R110 cleavage fluorescence; inhibition, % at 12.5 µM; actives 0.53% (n = 350,000); AID 686996;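 active = mean inhibition across replicates at least about 35%, with every replicate also reaching that limit, limit read from the data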;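 note: 0% = median of neutral control wells and 100% = no fluorescence left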
# Target sequence (P55212 24-179 limits assumed): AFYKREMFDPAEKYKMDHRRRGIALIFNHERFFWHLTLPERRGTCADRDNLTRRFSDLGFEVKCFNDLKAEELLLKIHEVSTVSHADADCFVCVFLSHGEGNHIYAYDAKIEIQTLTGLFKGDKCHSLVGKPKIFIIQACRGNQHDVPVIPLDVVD
# Target sequence (P55212 194-293 limits assumed): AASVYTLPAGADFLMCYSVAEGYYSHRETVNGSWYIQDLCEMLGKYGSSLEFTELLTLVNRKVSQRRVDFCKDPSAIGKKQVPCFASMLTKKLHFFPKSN
# E-sel inducer = E-selectin induction on HUVECs. HUVEC E-selectin immunofluorescence imaging; normalized: neutral wells 0, TNF-alpha wells 100. actives 0.37% (n = 260,000). activation, % at 7.58 µM. P16581. AID 686992;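 active = mean E-selectin-positive cell signal at least 10% of the positive control, reached in at least 60% of replicates, without over 20% cell loss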;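 note: in these data hits start at about 27%; measured in HUVEC primary endothelial cells; signal is the percent of cells scored E-selectin positive by PE staining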
#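 Test system: HUVEC; input: 3,000 HUVEC/well; measured by: immunofluorescence imaging; read-out: % PE-positive cells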
# RAD54 branch = blocks human RAD54 Holliday junction branch migration | actives 0.14% (n = 360,000) | inhibition, % at 10.4 µM | FAM/BHQ fluorescence;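 active = mean normalized replicate activity at least 40 and at least half of replicates scoring 40 or more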;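 note: 0% = median of neutral control wells and 100% = median of positive control wells; inhibitors cause a drop in the FAM fluorescence signal; in these data hits start at about 50%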
# esBAF inh = inhibitors of esBAF chromatin remodeling in mouse ES cells; AID 602393; Bmi1-luciferase knock-in reporter, 24 h; 100% = twice the neutral-well signal; actives 2% (n = 350,000); reporter increase, % at 12.5 µM; in the data active = activation above about 40%;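 note: 0% = median of the plate's neutral control wells and 100% = double that signal; a rise in the Bmi1 reporter signal indicates esBAF inhibition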
# PglD inh = blocks C. jejuni PglD acetyltransferase activity; AID 602405; purified PglD enzyme, DTNB colorimetric CoA detection; actives 0.098% (n = 360,000); inhibition, % at 12.5 µM; in the data active = inhibition above about 16%, passing the limit was not always enough; note: strong numbers were not always called active
# RAD52 anneal inh = blocks human RAD52 DNA annealing; inhibition, % at 18.7 µM; P43351; recombinant RAD52 DNA annealing, FRET fluorescence; actives 0.46% (n = 360,000);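 active = every replicate showing at least 50% inhibition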
# Target sequence (P43351 whole entry, looked up): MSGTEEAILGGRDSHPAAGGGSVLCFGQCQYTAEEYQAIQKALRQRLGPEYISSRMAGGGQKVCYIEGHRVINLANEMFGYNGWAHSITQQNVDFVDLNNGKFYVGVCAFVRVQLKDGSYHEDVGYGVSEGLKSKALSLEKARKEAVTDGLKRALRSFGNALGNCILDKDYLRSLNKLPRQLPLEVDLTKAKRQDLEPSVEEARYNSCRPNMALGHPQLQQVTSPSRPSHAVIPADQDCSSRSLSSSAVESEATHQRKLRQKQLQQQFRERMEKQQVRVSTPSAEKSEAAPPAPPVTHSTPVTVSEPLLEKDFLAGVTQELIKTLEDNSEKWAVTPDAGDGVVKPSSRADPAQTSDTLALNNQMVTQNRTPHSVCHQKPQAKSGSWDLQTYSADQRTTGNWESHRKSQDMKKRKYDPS
# ERp5 inh = blocks human ERp5 reductase activity on insulin; AID 651711; ERp5 insulin aggregation, absorbance 650 nm, 90 min; inhibition, % at 9.99 µM; Q15084; actives 0.05% (n = 350,000);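 active = mean replicate inhibition above about 25%, with every replicate also reaching it, limit read from the data, passing the limit was not always enough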
# * hit, by the source's call; . = no result given; & = joins results of further samples. Some of the compounds tested, so the mix of outcomes need not match the whole.
SMILES,Casp6 inh,E-sel inducer,RAD54 branch,esBAF inh,PglD inh,RAD52 anneal inh,ERp5 inh
C[C@H]1CCCCO[C@@H](CN(C)C(=O)Nc2ccc(F)cc2)[C@@H](C)CN([C@@H](C)CO)C(=O)c2cc(NS(=O)(=O)c3ccc(Cl)cc3)ccc2O1,0,-0.3,-2,-3,13,-41,0
CCN(CC(=O)NCc1ccc(F)cc1)Cc1cc(=O)n2ccsc2n1,0,1.8,11,-2,0,-9,-3
CC(Cn1cncn1)NC(=O)c1cc(COc2cccc(C(F)(F)F)c2)on1 (stereo unspecified),6,.,3,12,2,0,-2
CCN(Cc1nc2ccccc2c(=O)[nH]1)Cc1cc(=O)oc2cc(OC)ccc12,.,.,-2,-3,9,.,.
O=C1CCCc2ccccc2N1Cc1cccc(Cl)c1,.,.,4,8,-4,.,.
CCCCN(CC)S(=O)(=O)c1ccc(C(=O)Nc2nnc(CSC)o2)cc1,.,.,3,-8,1,.,.
COC(=O)C1=C(C)Nc2nnnn2C1c1cccnc1 (stereo unspecified),.,.,2,.,4,.,.
C[C@H](CO)N1C[C@H](C)[C@@H](CN(C)C(=O)Nc2ccc(C(F)(F)F)cc2)Oc2ccc(NC(=O)Nc3cccc4ccccc34)cc2C1=O,-3,3.1,-3,10,1,10,3
O=C1CCN(Cc2nc(-c3ccc(Cl)cc3)no2)CCN1,-2,1.4,1,-5,6,-2,0
Cc1cc(C)c2ccc(NN)nc2c1O,.,.,0,-11,-4,.,.
CC(C)NC(=O)Nc1cccc2c1O[C@H](CN(C)Cc1ccc(Oc3ccccc3)cc1)[C@@H](C)CN([C@H](C)CO)C2=O,1,1.7,6,-7,2,12,0
COc1ccc(OC)c(-n2c(-c3cccc(O)c3)n[nH]c2=S)c1,.,.,-5,0,0,.,.
COc1cccc(-c2ccc3c(c2)[C@@H]2[C@@H](CCN2C(=O)NC2CCCC2)[C@@H](CO)N3C)c1,-3,-0.4,12,5,-2,-4,2
CC(C)NC(=O)Nc1cccc2c1O[C@H](CN(C)Cc1ccc(Oc3ccccc3)cc1)[C@@H](C)CN([C@@H](C)CO)C2=O,0,0.6,-9,-4,2,0,1
O=C(Nc1ccccc1)C1=C(O)CC(c2ccco2)CC1=Nc1ccccc1 (stereo unspecified),.,.,-12,-4,3,.,.

# 4 entries from above, with values under each structure.
# Every second line gives: Casp6 inh | E-sel inducer | RAD54 branch | esBAF inh | PglD inh | RAD52 anneal inh | ERp5 inh
C[C@H]1CCCCO[C@@H](CN(C)C(=O)Nc2ccc(F)cc2)[C@@H](C)CN([C@@H](C)CO)C(=O)c2cc(NS(=O)(=O)c3ccc(Cl)cc3)ccc2O1
→ 0 | -0.3 | -2 | -3 | 13 | -41 | 0
CCN(CC(=O)NCc1ccc(F)cc1)Cc1cc(=O)n2ccsc2n1
→ 0 | 1.8 | 11 | -2 | 0 | -9 | -3
CC(Cn1cncn1)NC(=O)c1cc(COc2cccc(C(F)(F)F)c2)on1 (stereo unspecified)
→ 6 | . | 3 | 12 | 2 | 0 | -2
CCN(Cc1nc2ccccc2c(=O)[nH]1)Cc1cc(=O)oc2cc(OC)ccc12
→ . | . | -2 | -3 | 9 | . | .

# Following part.
SMILES,Casp6 inh,E-sel inducer,RAD54 branch,esBAF inh,PglD inh,RAD52 anneal inh,ERp5 inh
C=CCSc1n[nH]c(-c2ccc(OC)cc2)n1,.,.,-4,54*,2,.,.
Nn1c(SCC(=O)Nc2ccc(S(N)(=O)=O)cc2)nnc1C(F)(F)F,-4,1.6,-5,-10,2,-12,-5
N#Cc1ccc(C2=NC(C(F)(F)F)(C(F)(F)F)c3c(n(Cc4ccco4)c(=O)[nH]c3=O)N2)cc1,.,.,4,-4,-1,.,.
c1ccc(-c2nc(NCC3CCCO3)c3ccccc3n2)nc1 (stereo unspecified),.,.,15,2,3,.,.
COc1ccc(CNC(=O)C[C@H]2CC[C@H]3[C@@H](COc4ccc(NC(=O)C5CC5)cc4C(=O)N3C)O2)cc1,-1,0.0,-5,0,0,18,-3
COC(=O)[C@H](CC(C)C)NC(=O)c1cc2c(cn1)[nH]c1ccccc12,-2,0.3,1,-10,-2,-27,-2
COc1cnc(-c2ccccn2)nc1N(C)c1ccccc1,-9,1.0,-7,2,2,-7,2
CC(C)NC[C@H](O)COc1cccc2[nH]ccc12,-15,0.2,-1,-3,2,-2,-3
CC(C)NC(=O)N1C[C@H]2[C@@H](c3ccccc31)[C@H](CO)N2Cc1ccccn1,-1,0.0,-10,21,4,-27,5
O=C(NC1CCN(C(=O)NCc2ccccc2)CC1)c1ccc(F)cc1,1,0.3,1,-3,11,-14,5
COc1ccc(NC(=O)Nc2ccc3c(c2)C(=O)N([C@@H](C)CO)C[C@@H](C)[C@H](CN(C)C(=O)CCC(F)(F)F)OCCCC[C@@H](C)O3)cc1,1,-0.1,-1,11,2,3,-1
O=C1c2cccnc2C(=O)N1c1cccc([N+](=O)[O-])c1,3,-0.1,-8,3,-3,0,1
Cc1ccc2cc(C)c3nnc(SCC(=O)N4CCN(C(=O)c5ccco5)CC4)n3c2c1,1,.,-13,-4,-4,-17,2
Cc1cccc(NC(=O)c2ccc(NC(C)c3ccccc3)c([N+](=O)[O-])c2)n1 (stereo unspecified),-5,.,4,9,-4,-7,0
CCOC(=O)CN1C(=O)N(c2ccccc2OC)S(=O)(=O)c2ccccc21,2,23,-11,0,0,-10,0
Cc1cc(C)c(S(=O)(=O)Nc2cccc(S(=O)(=O)N3CCOCC3)c2)c(C)c1,2,-0.1,-3,3,2,-18,2
C/C(=N\Nc1ccc(S(=O)(=O)N2CCOCC2)cc1[N+](=O)[O-])C(C)C,.,0.6,8,-4,.,-7,-2
CCN(CC)C(=O)CNc1ccc(C(F)(F)F)cc1[N+](=O)[O-],.,.,5,13,-8,.,.
C[C@@H]1CN([C@@H](C)CO)C(=O)c2cc(NC(=O)C3CCCCC3)ccc2O[C@@H](C)CCCCO[C@@H]1CN(C)C(=O)NC1CCCCC1,2,-0.2,1,-3,-33,-9,-2
CCN(CC)Cc1c(C(=O)N/N=C/c2ccccn2)nnn1-c1nonc1N,-4,.,1,-2,0,-14,1
CS(=O)(=O)c1ccc(-c2cccc(NC(=O)c3ccco3)c2)nn1,2,-0.2,-1,2,0,-6,2
CN(C)C(N)=NCCC[C@H](N)C(=O)O,.,0.2,-9,-9,-2,-8,-2
COc1cnc(-c2ccccn2)nc1Sc1ccccc1Cl,.,.,-13,5,-8,.,.
CCCN1CCN(C(=O)CCCNC(=O)Cn2cnc3sc(C)c(C)c3c2=O)CC1,.,.,3,-1,-4,.,.
CC(C)NC(=O)Nc1cccc2c1O[C@@H](CN(C)Cc1ccc(Oc3ccccc3)cc1)[C@@H](C)CN([C@@H](C)CO)C2=O,-1,0.3,-12,-3,-1,5,2
O=C(NCCc1ccccn1)C1CC(=O)N(Cc2ccccc2Cl)C1 (stereo unspecified),.,.,-2,-3,-2,.,.
CC1CC1C(=O)OCC(=O)NC(=O)NCc1ccco1 (stereo unspecified),.,.,0,-3,-1,.,.
C[C@H](CO)N1C[C@H](C)[C@H](CN(C)C(=O)Nc2ccc(F)cc2)OCCCC[C@H](C)Oc2ccc(NS(=O)(=O)c3ccc(Cl)cc3)cc2C1=O,0,0.0,-7,4,-5,25,3
CC(C)NC(=O)Nc1cccc2c1O[C@H](CN(C)C(=O)Nc1ccc(C(F)(F)F)cc1)[C@H](C)CN([C@H](C)CO)C2=O,6,-0.2,-3,0,0,-2,5
O=C(CSc1nc(O)cc(=O)[nH]1)N1c2ccccc2CCc2ccccc21,6,8.1,.,-7,.,-6,4
CCN(c1ccccc1)S(=O)(=O)c1cccc(C(=O)NCc2ccccn2)c1,-93,-3.3,6,.,3,9,1
Cc1cc(NC(=O)CSc2nnc(-c3ccoc3C)o2)no1,.,.,15,-8,2,.,.
CS(=O)(=O)c1ccc(-c2cccc(NC(=O)c3ccc(Br)o3)c2)nn1,-4,.,1,.,-7,-14,6
COc1ccc(C(=O)NCC(=O)N/N=C/c2ccc([N+](=O)[O-])o2)cc1OC,9,0.1,.,.,.,-4,4
CCOc1ccc(CN2CCNC(=O)C2CC(=O)NCCC2=CCCCC2)cc1 (stereo unspecified),-6,.,-4,.,-3,-25,-4
C[C@@H]1CN([C@H](C)CO)S(=O)(=O)c2ccc(C#CCN(C)C)cc2O[C@@H]1CN(C)Cc1cccnc1,0,-0.3,-6,-4,1,-14,-10
Cc1ccn2cc(CNS(=O)(=O)c3ccc4c(c3)OCCO4)nc2c1,-1,.,4,5,-2,-17,-2
CC1=C(/C=C/C(C)=N\NC(=O)c2ccncc2)C(C)(C)CCC1,-4,.,.,.,.,-4,3
CN(C)CCOC(C1CCCCC1)C1CCCCC1,-7,.,-1,-10,-3,11,0
Cc1cc(C)c(S(=O)(=O)Nc2cccc(-n3cnnn3)c2)c(C)c1,-4,.,2,7,-3,-33,1
COc1ccc(/C=C2/Sc3ccc(C(=O)NCCN4CCCCCC4)cc3NC2=O)cc1,0,.,5,-4,-2,-11,-3
O=C(/C=C/NNC(=O)c1ccccc1O)c1ccccc1,1,0.1,2,61*,4,-2,1
COc1cnc(-c2ccccn2)nc1Oc1ccc(C(C)(C)C)cc1,-1,0.2,-2,1,4,-11,2
CCOC(=O)c1cnc(-n2nc(C)cc2C)nc1NNc1cc(C)nc(-c2ccccc2)n1,0,.,-3,.,-5,-6,3
CN1CN(C)C(c2ccncc2)=C1c1ccncc1,-3,-0.1,5,-4,-1,-2,8

# Another view of part of the listing above.
SMILES | Casp6 inh | E-sel inducer | RAD54 branch | esBAF inh | PglD inh | RAD52 anneal inh | ERp5 inh
O=C1CCN(Cc2nc(-c3ccc(Cl)cc3)no2)CCN1 | -2 | 1.4 | 1 | -5 | 6 | -2 | 0
CC(C)NC(=O)N1C[C@H]2[C@@H](c3ccccc31)[C@H](CO)N2Cc1ccccn1 | -1 | 0.0 | -10 | 21 | 4 | -27 | 5
N#Cc1ccc(C2=NC(C(F)(F)F)(C(F)(F)F)c3c(n(Cc4ccco4)c(=O)[nH]c3=O)N2)cc1 | . | . | 4 | -4 | -1 | . | .
CS(=O)(=O)c1ccc(-c2cccc(NC(=O)c3ccc(Br)o3)c2)nn1 | -4 | . | 1 | . | -7 | -14 | 6
Cc1cc(NC(=O)CSc2nnc(-c3ccoc3C)o2)no1 | . | . | 15 | -8 | 2 | . | .
COc1ccc(/C=C2/Sc3ccc(C(=O)NCCN4CCCCCC4)cc3NC2=O)cc1 | 0 | . | 5 | -4 | -2 | -11 | -3

# (more compounds)
SMILES,Casp6 inh,E-sel inducer,RAD54 branch,esBAF inh,PglD inh,RAD52 anneal inh,ERp5 inh
O=S(=O)(c1ccccc1)c1nc(-c2ccco2)oc1Nc1ccccc1,-5,0.4,.,.,.,-16,-7
C[C@H](CO)N1C[C@H](C)[C@@H](CN(C)S(=O)(=O)c2cccs2)Oc2c(NC(=O)c3ccncc3)cccc2C1=O,0&1,-9.2&-0.1,-3&-6,3&12,5&-2,-1&-32,-3&-9
COc1ccc(CNC(=O)N2CCN(c3ccc(F)cc3)CC2)cc1,3,-0.1,1,-1,3,-10,4
CC(C)NC(=O)Nc1cccc2c1O[C@@H](CN(C)C(=O)Nc1ccc(C(F)(F)F)cc1)[C@@H](C)CN([C@@H](C)CO)C2=O,3,0.1,-1,3,-1,-7,-6
